PABP FP inh – blocks human PABP binding to poly(A) RNA; P11940; fluorescence polarization; inhibition, % at 35 µM; actives 1% (n = 290,000);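 active = 50% or more with normal probe brightness, or confirmed in later tests; inconclusive = above 50% with abnormal brightness, or retests that disagree; inactive = below 50% or failed in later tests; about a fifth of its hits are not listed in these tables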;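 also: calls also rest on retests at 20 µM and on dose response follow-up; controls were probe without protein and protein plus probe with vehicle; some compounds called inactive have numbers as strong as hits; many hits fall short of the cut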
Target sequence (P11940 whole entry, looked up): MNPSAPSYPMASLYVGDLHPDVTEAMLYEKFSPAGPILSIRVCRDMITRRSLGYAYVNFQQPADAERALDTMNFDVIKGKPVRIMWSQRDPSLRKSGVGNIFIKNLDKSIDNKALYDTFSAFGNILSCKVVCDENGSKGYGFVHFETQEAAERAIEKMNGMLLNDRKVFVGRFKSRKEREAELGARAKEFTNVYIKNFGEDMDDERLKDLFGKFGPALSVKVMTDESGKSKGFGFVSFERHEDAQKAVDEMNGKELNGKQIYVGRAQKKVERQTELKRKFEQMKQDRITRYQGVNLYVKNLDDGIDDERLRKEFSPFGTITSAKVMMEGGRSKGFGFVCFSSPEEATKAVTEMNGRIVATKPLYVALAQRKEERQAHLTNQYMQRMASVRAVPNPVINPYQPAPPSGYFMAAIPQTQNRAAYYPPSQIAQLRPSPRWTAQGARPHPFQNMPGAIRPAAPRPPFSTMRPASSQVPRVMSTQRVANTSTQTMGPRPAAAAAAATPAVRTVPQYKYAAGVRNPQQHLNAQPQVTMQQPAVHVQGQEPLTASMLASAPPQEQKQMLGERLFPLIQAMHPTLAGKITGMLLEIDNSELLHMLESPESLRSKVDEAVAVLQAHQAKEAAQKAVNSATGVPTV
CSC inhib – blocks cancer stem cells. inhibition, % at 7.5 µM. actives 1.1% (n = 300,000). cancer stem cell-like cells viability, luminescence;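 active = mean at 75% or more and at least half the replicates too; inconclusive = mean and replicates disagree; tested in HMLE shEcad cells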;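 also: 0% = median of negative and 100% = median of positive control wells; the first replicate is given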
Rce1 inh – blocks yeast Ras-converting enzyme. yeast membranes, quenched prenylated peptide cleavage fluorescence. calls only. actives 0.27% (n = 290,000). AID 2563;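 active = fall in fluorescence gain of 50% or more versus controls, with final raw signal at or below 3038400; inconclusive = same 50% fall but final raw signal above 3038400; inactive = fall in fluorescence gain under 50%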;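 also: plate controls were neutral control wells for no effect and wells lacking membranes for full effect; tested at 10 µM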
MT1-MMP act inh – blocks activation of human MT1-MMP; P50281; HT1080 RFP-PRO-GFP cells, GFP/RFP ratio fluorescence, overnight; percent of plate control window, DMSO zero; GFP/RFP ratio change, % at 20 µM; actives 0.061% (n = 360,000); AID 651647;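 active = GFP/RFP ratio change of at least 30% with cell ATP level not reduced by more than half and red fluorescence within 50% of control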; also: strong numbers were not always called active
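Test system: HT1080 cells expressing an RFP-PRO-GFP fluorescent reporter construct / Compound dosing: single-point 20 µM compound, 1% DMSO / Schedule: cells overnight before dosing, compound overnight, 37 °C, 5% CO2 / Evaluation: GFP/RFP fluorescence ratio / Control set: DMSO and RFP-L50D-GFP cell wells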
UUG fidelity – modulators of start codon recognition fidelity in yeast | S. cerevisiae UUG-firefly luciferase reporter, luminescence/redox ratio | activity score, % at 18.7 µM | actives 0.13% (n = 350,000) | AID 602363;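 active = replicate mean at a twofold rise or more, about +100% in these data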;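 also: firefly luciferase made from a UUG start codon reports start codon fidelity; reporter light over untreated wells divided by growth signal over untreated wells; some hits fall short of that in this replicate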
Env fusion inh – inhibitors of HIV Env-mediated cell fusion. inhibition, % at 12.3 µM. actives 1.1% (n = 360,000). HeLa-JRFL Env/CEM21 cell fusion, luciferase;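 active = mean replicate inhibition score of at least 50 and every replicate individually at or above 50; inconclusive = only one of the two criteria met; inactive = mean below 50 and not all replicates reaching 50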;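 also: 0% = plate neutral controls and 100% = maraviroc near 300 nM; one replicate is shown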
eIF4H FP inh – inhibitors of RNA binding by human eIF4H; eIF4H fluorescence polarization binding assay; inhibition, % at 35 µM; actives 0.94% (n = 290,000); AID 2012;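 active = 50% or more with normal probe brightness, or confirmed in later tests; inconclusive = above 50% with abnormal brightness, or retests that disagree; inactive = below 50% or failed in later tests; about a fifth of its hits are not listed in these tables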;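 also: calls also rest on retests at 20 µM and on dose response follow-up; 0% = protein and probe with vehicle and 100% = probe without protein; strong numbers were not always called active; many hits fall short of the cut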
MT1-MMP act inh RFP – recorded beside MT1-MMP act inh, whose call it bears; RFP signal change, %; measured here: RFP expression control read;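 0 = vehicle wells; hits needed this value within 50% of zero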
Starred values were filed as active, the others as inactive; i = inactive; u = inconclusive; x = no result given; & = joins results of further samples.

nr	Structure	PABP FP inh	CSC inhib	Rce1 inh	MT1-MMP act inh	MT1-MMP act inh RFP	UUG fidelity	Env fusion inh	eIF4H FP inh
1	O=C(CCN=C1NS(=O)(=O)c2ccccc21)OCc1cccc(Cl)c1	x	34	i	11	-2	x	3	x
2	CC1=CN2C(=N)/C(=C/c3ccc(Sc4ccc(C)cc4)o3)C(=O)N=C2S1	0	60	i	0	2	x	10	25
3	O=C(c1ccc2ccccc2c1)C1CCCN(C(=O)c2cnccn2)C1 (stereo not given)	0	-8	i	-3	-4	-11	7	-5
4	O=S(=O)(NCCc1ccc(F)cc1)c1ccc(F)cc1Br	x	x	x	5	1	-8	-18	x
5	CCN1CCc2c(sc(NC(=O)c3ccc(S(=O)(=O)N4CCOCC4)cc3)c2C(=O)OC)C1	-16	-8	i	-9	0	3	x	-18
6	N#Cc1ccccc1CSc1nnc(-c2ccncc2)o1	-6	3	i	1	0	-17	x	-10
7	COc1ccc(-c2csc(NC(=O)CSCc3c(C)noc3C)n2)c(OC)c1	x	-10	i	-2	-7	-21	-1	x
8	Cc1cc(Cl)ccc1NC(=O)COC(=O)CCNS(=O)(=O)c1ccccc1	x	-3	x	6	2	-12	x	x
9	CCN(CC)S(=O)(=O)c1cccc(NC(=O)c2ccccc2Br)c1	4	-5	x	1	3	x	5	3
10	C/C(=N\NC(=O)c1ccc([N+](=O)[O-])cc1)c1cccc([N+](=O)[O-])c1	-6	-2	i	-5	1	x	2	-6
11	Cc1cccc(C)c1NC(=O)CN(C)c1ccc(C(F)(F)F)cn1	10	-9	i	3	0	x	3	-4
12	O=C(NN1C(=O)/C(=C/c2cccs2)SC1=S)c1cccnc1	7	1	i	-17	4	-13	-4	-4
13	CCc1c(O)nc(SCC(=O)Nc2ccccc2OC)[nH]c1=O	-4	-7	i	3	7	-17	9	2
14	CC(C)CCC1(C)NC(=O)N(CC(=O)Nc2ccc3c(c2)OCCO3)C1=O (stereo not given)	x	6	x	-2	-1	4	x	x
15	CCOc1cccc(/C=C/c2ccc3ccccc3n2)c1OC(C)=O	-3	65	i	0	-6	x	-280	-4
16	Cc1ccccc1OCc1nc2ccccc2c(=O)n1/N=C/c1c[nH]c2ccccc12	0	12	i	2	0	-18	x	-17
17	COc1cccc(NC(=O)COc2ccc(C(=S)N3CCN(C)CC3)cc2OC)c1	-6	16	i	2	-13	-5	10	0
18	COc1ccc(S(=O)(=O)NC(CC(=O)NCc2ccc3c(c2)OCO3)c2ccco2)cc1 (stereo not given)	-2	12	i	2	1	-8	x	3
19	CCOc1cc2[nH]c(=S)n(Cc3ccc(C(=O)NCCCOC)cc3)c(=O)c2cc1OCC	2	x	i	2	1	0	7	-11
20	Cn1nnnc1SCC(=O)Nc1ccccc1C(N)=O	1	-9	i	-1	1	x	-8	-6
21	COC(=O)Cc1ccc(NC(=O)c2ccc3c(c2)C(=O)N(Cc2cccnc2)C3=O)cc1	10	-5	i	1	1	-15	-2	5
22	Cc1c(C)c(C)c(C(=O)CCc2cccc(NC(=O)CCC(=O)O)c2)c(C)c1C	-7	0	i	-3	0	-21	17	-6
23	C=CCC(O)(CC=C)CNC(=O)c1ccc(OC)c(OC2CCN(C(C)=O)CC2)c1	-3	x	i	0	0	3	6	4
24	CCCC(=O)O/N=C(\c1ccccc1)c1ccncc1	4	4	i	1	-1	-2	10	-9
25	Nc1nc(N)c(N=Nc2ccc(C(=O)O)cc2)c(N)n1	16	0	i	5	4	-11	-79	13
26	CCC(=O)N1CCc2cc(S(=O)(=O)CCC(=O)N3CCc4ccccc4C3)ccc21	-2	10	i	2	5	-19	x	2
27	CCOC(=O)c1ccc(NC(=O)N2CC(C)OC(C)C2)cc1 (stereo not given)	-3&-8	0	i	-2	3	-16	-27	8&-7
28	CC(C)(C)C1=Nn2c(nnc2C2CCCCC2)SC1	8	-4	i	4	7	-23	-2	-2
29	CCn1c(C)nc2cc(C(=O)NNC(=O)Nc3ccc(Cl)cc3)ccc21	-3	3	i	-1	-1	0	8	-4
30	CCN(CC(=O)Nc1ccc(OC)cc1)C(=O)Cc1cccs1	x	x	i	-5	1	-17	-1	x
31	Cc1cc(-c2ccccc2)oc(=O)c1NC(=O)c1ccccc1	-4	-5	i	6	4	x	-24	4
32	Cc1[nH]nc2c1C(C(C)c1ccccc1)C(C#N)=C(N)O2 (stereo not given)	-4	5	i	2	-2	x	21	-5
33	C=C(C)CC(NCc1ccco1)c1ccc(OC)cc1 (stereo not given)	-6	4	i	2	2	-13	x	-4
34	CN=c1scc(-c2cccs2)n1/N=C/c1ccccc1O	6	-8	i	-1	-16	x	57*	4
35	C=CCNC(=O)C1CCN(c2cc(C)nc(-c3ccccc3)n2)CC1	2	-5	i	-10	-3	x	-5	-10
36	O=C(CCCCCn1c(=S)[nH]c2ccsc2c1=O)NC1CCCCC1	-6	-2	i	-1	-3	-16	5	-3
37	COc1cc(OC)c(OC)cc1CNC1CCCCCC1	14	1	i	-4	-1	2	-8	11
38	Cc1c(C(C)O)nnn1-c1nonc1N (stereo not given)	5	-16	i	7	8	-4	8	-16
39	CCOc1ccc(S(=O)(=O)N/N=C(\C)Cc2ccc(OC)cc2)cc1	-1	4	i	0	3	-1	7	-4
40	O=C(Nc1ccccc1)Nc1cc(OCC(F)(F)F)cc(OCC(F)(F)F)c1	-8	x	i	-39	-40	x	62*	-2
41	O=C(Nc1c(F)cc(F)cc1Br)c1cc(-c2ccc(O)cc2)on1	-4	37	i	1	-5	-27	-58	-5
42	CCO/C=C1/C(=O)N(C)C(=O)c2cc(OC)ccc21	40	-13	i	-20	-2	-62	x	21
43	COC(=O)c1sccc1NC(=O)CSc1cc(Cl)ccc1Cl	-12	1	i	-2	-5	-1	x	0
44	O=C(Nc1ccccn1)c1sc2cccc(F)c2c1Cl	-12	-4	i	-2	3	-14	-113	-6
45	COc1ccc(N(C(=O)c2ccncc2)S(=O)(=O)c2ccc(F)cc2)cc1	4	-3	x	1	-2	-11	11	0
46	COc1cccc(NC(=O)c2cnc(SC)nc2)c1	-3	-4	i	2	2	-3	5	-8
47	Cc1ccc(CNC(=O)COc2ccc(S(=O)(=O)N3CCCC3)cc2)cc1	-3	5	i	2	4	-11	14	-10
48	COCCCn1c(SCC(=O)Nc2ccccc2F)nnc1-c1ccoc1C	-5	-2	i	2	3	-10	6	-12
49	CC(=N\NC(=O)c1ccc([N+](=O)[O-])cc1)/C(=N/O)C(=O)Nc1ccccc1	2	-22	i	-1	0	20	4	-3
50	O=C(O)c1cccc2c1C(=O)c1ccc(Cl)cc1S2(=O)=O	x	1	x	-1	1	50	1	x
51	Cc1ccc2oc(=O)c3cnn(CC(=O)N4CCc5ccccc5C4)c3c2c1	-3	-18	i	0	-1	-18	-5	-2
52	NNc1nc2c(F)cccc2s1	7	19	i	6	-4	x	x	5
53	COC(=O)/C=C1/N/C(=N\c2nc(C)cc(C)n2)N(c2ccc(C)c(C)c2)C1=O	2	9	i	2	0	-18	x	17
54	Cc1ccc(OCc2nnc(NC(=O)c3cccnc3)s2)cc1	-2	2	i	-2	0	x	-3	3
55	CCOc1ccc(OCCC(=O)OCC(=O)N2CCN(c3ccc(OC)cc3)CC2)cc1	x	-4	i	0	0	-5	-3	x
56	N#CC(C(=O)NCCc1ccccc1)c1nc2ccccc2nc1N1CCOCC1 (stereo not given)	11	50	i	-101	-2	-3	x	8
57	COc1cccc2cc(C(=O)NCCN3CCOCC3)c(=O)oc12	12	-17	i	2	1	-28	8	-3
58	CC(=O)N1CCC(C(=O)NC2CC(C)(C)Cc3c2cnn3-c2ccc(F)cc2)CC1 (stereo not given)	-1	2	i	5	0	-3	9	-8
59	Cc1c(C(=O)N(Cc2ccccc2)C(C)C)cnn1-c1ccccc1	5	-8	i	1	-4	10	5	-6
60	Cc1ccc(C(=O)N2CCN(c3ncnc4c3cnn4-c3ccccc3)CC2)cc1	x	-11	x	4	-13	-16	x	x

Going on with the list:
nr	Structure	PABP FP inh	CSC inhib	Rce1 inh	MT1-MMP act inh	MT1-MMP act inh RFP	UUG fidelity	Env fusion inh	eIF4H FP inh
61	NC(N)=NS(=O)(=O)c1ccc(N=C2C(=O)Nc3ccccc32)cc1	3	-6	i	-1	4	-6	2	4
62	C[C@@H](CN1CCC[C@H]1CN1C(N)=NC[C@@H]1Cc1ccccc1)N1C[C@@H](Cc2ccccc2)N(CCCC2CCCC2)C1=N	x	1	x	2	5	-6	x	x
63	O=C(c1sc2ccccc2c1Cl)N(Cc1ccco1)C1CCS(=O)(=O)C1 (stereo not given)	-2	-9	i	-4	-3	-1	25	-3
64	COC(=O)C1CCN(C(=O)c2cc(-c3ccco3)nc3ccccc23)CC1	x	-8	x	-5	4	4	-1	x
65	O=C(CC1C(=O)NCCN1Cc1cccc(Oc2ccccc2)c1)NCCc1ccccn1 (stereo not given)	9	-8	i	1	2	x	5	42
66	Cc1nc2cc(OC3(C)CCN(Cc4ccc(OC(F)(F)F)cc4)C3)ccc2s1 (stereo not given)	x	x	x	2	-7	-7	28	x
67	COc1ccc(OC)c(C(=O)N2CCC(C(=O)c3ccc(F)cc3)CC2)c1	3	7	i	-2	-1	-20	52	-5
68	CSc1ccc(CNC(=O)C2(C)CCCN2CC(C)C)cc1 (stereo not given)	x	x	x	1	5	-14	-9	x
69	Clc1ccc2c(c1)C(N1CCNCC1)Cc1ccccc1S2 (stereo not given)	4	-6	x	-53	-42	-13	x	-10
70	CCOc1ccc(C(=O)N2CCc3ccccc32)cc1	-4	-27	i	-1	-1	-22	-19	-9
71	Cc1cc(=O)oc(C)c1C(=O)OC(C(=O)c1ccccc1)c1ccccc1 (stereo not given)	0	7	i	-1	3	x	8	-1
72	CCOC(=O)CCCCCC(=O)Nc1ccc2c(c1)C(=O)N([C@H](C)CO)C[C@H](C)[C@@H](CN(C)C(=O)Nc1ccc(OC)cc1)O2	x	0	x	-1	3	-1	x	x
73	Cc1ccc(C)c(N2CCN(CCCNC(=O)CCn3c(=O)c4cccn4c4cccnc43)CC2)c1	0	-26	i	-3	2	3	10	-8
74	COC(=O)c1c(C)[nH]c(C(=O)COc2ccc3ccc(=O)oc3c2)c1C	x	x	x	0	-6	-15	6	x
75	CC(C)OCCCNC(=O)c1cc(Sc2ccc(F)cc2)nc2ccccc12	23	7	i	0	0	x	21	1
76	Cc1cc(C)nc(N2CCC(C(=O)Nc3ccc4c(c3)OCCO4)CC2)n1	3	6	i	-1	3	x	14	-1
77	CN(N=Nc1ccc([N+](=O)[O-])cc1)c1ccccc1	-21	13	i	0	0	-18	-322	u
78	CCn1c(=O)c(C(=O)NCc2ccccc2)c(O)c2ccccc21	2	19	i	0	4	-7	12	-7
79	COc1ccc(OC)c(C2C(C#N)=C(N)Oc3cc(N)ccc32)c1 (stereo not given)	40	-9	i	-2	1	-15	-225	46
80	COc1ccc(C2C(C(=O)Nc3cc(C)on3)c3ccccc3C(=O)N2C)cc1OC (stereo not given)	-10	-3	x	-4	0	-2	-91	-8

Entries listed so far shown as hits in Env fusion inh.
#	Molecule	Rce1 inh	MT1-MMP act inh	MT1-MMP act inh RFP	UUG fidelity	Env fusion inh
34	CN=c1scc(-c2cccs2)n1/N=C/c1ccccc1O	i	-1	-16	x	57*
40	O=C(Nc1ccccc1)Nc1cc(OCC(F)(F)F)cc(OCC(F)(F)F)c1	i	-39	-40	x	62*

Rows were taken by chance (roughly 2.9% active in at least one column).
